CapD inh: Bacillus anthracis CapD inhibitors, primary screen, biochemical, fluorescence intensity; CapD gamma-glutamyltranspeptidase (Bacillus anthracis Ames Ancestor); purified CapD enzyme, fluorescence intensity read-out; active compounds read low; some hits fall short of the stated cut; z-score (test concentration not listed); 0.23% of 140,000 active; AID 492967, 2010;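 active means z-score under -4 in either of two replicates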;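 further: stock transfer was 100 nL into about 40 µL; score is relative to mean and spread of the plate; one replicate is shown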
AID504770: growth inhibition of E. coli YBA685, primary screen, V. cholerae RctB inhibitors; E. coli YBA685 rctB-dependent plasmid, OD600 growth, 3 h; active compounds read low; z-score (concentration not given with the values); 0.27% of 130,000 active;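 active means z-score under -2 on both plates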;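 further: wells of about 30 µL received 100 nL stock; score is relative to mean and SD of the test wells; the first replicate is given; strong numbers were not always called active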
The depositor's hits bear a star; / = not tested or not shown. A portion of the library (hit frequency here may not be typical).

SMILES	CapD inh	AID504770
O=C(c1cccc(-n2cnnn2)c1)N(CCc1ccccc1)Cc1cccs1	/	-0.5
CC1=NN(c2ccccc2)C(=O)/C1=C/c1ccc(OC(=O)c2ccco2)c(Cl)c1	-0.54	-0.45
NC(=S)N1N=C(c2ccccc2)CC1c1ccccc1 (configuration not stated)	-2.15	-0.8
Cc1ccc(-n2c(C)c([N+](=O)[O-])c3ccc(O)c(CN(C)C)c32)cc1	0.015	/
Cc1ccc(CSc2ssc(=S)c2-c2ccccc2)cc1	-1.66	/
Cn1c(CC23CC4CC(CC(C4)C2)C3)nnc1SCC(N)=O	-1.48	1.3
Cn1nc(C(=O)NCCCN2CCOCC2)c2c1-c1ccccc1S(=O)(=O)C2	-0.855	-1.25
CC(C)CN(CC(C)C)C(=O)c1cc2ccccc2oc1=O	-0.69	-0.05
CC1CCCC(NCCN2CCOCC2)C1 (configuration not stated)	0.195	0.05
O=C(NC1CCCCC1)c1ccc(S(=O)(=O)N2CCCC2)cc1	/	-0.55
CC(=O)Nc1ccccc1-c1ccccc1	0.275	-1.2
Cc1ccc(S(=O)(=O)NC2(C(F)(F)F)C(=O)N(Cc3ccco3)C3=C2C(=O)CC(C)(C)C3)cc1 (configuration not stated)	-0.14	0.3
CC(=O)c1c(C)oc2ccc(N(C(C)=O)S(=O)(=O)c3ccc(Cl)c([N+](=O)[O-])c3)cc12	0.005	/
Cc1cccc(NC(=O)C2C3C=CC4(O3)C2C(=O)N(Cc2cccnc2)C4C(=O)NC2CCCC(C)C2C)c1 (configuration not stated)	-0.135	-0.65
Cc1ccc(C#N)c(SCC(=O)N2c3ccccc3Sc3ccccc32)n1	0.01	/
COC(=O)C(Cc1c[nH]c2ccccc12)NC(=O)C12CC3CCC1CC(C3)C2 (configuration not stated)	0.31	0.05
Cc1ccccc1NC(=S)N1CCCCC1	-0.255	-0.8
OCc1ccccc1CNCc1ccccc1	0.125	-1.45
CCOC(=O)C1=C(N)n2c(s/c(=C\c3ccc(OC)c(OC)c3)c2=O)=C(C#N)C1c1ccc(OC)c(OC)c1 (configuration not stated)	-0.21	/
Cc1ccc(C)c(SCC(=O)N(C)C)c1	/	-0.6
CC(=O)N1CCC(C(=O)O)(c2ccccc2)CC1	/	-0.65
N#CCc1ccc(OCc2cnc(Cl)s2)cc1	0.09	-2.45
COc1ccc(OC)c(C2CC(=O)Nc3c2cc(Br)c2ccccc32)c1 (configuration not stated)	0.135	/
CCN(Cc1ccccc1)Cc1csc(C)c1C	-0.185	-0.75
Cc1ccc(N2C(=O)CSC23C(=O)Nc2ccccc23)cc1Br (configuration not stated)	-0.31	/

(more compounds)
SMILES	CapD inh	AID504770
O=C(Nc1nnc(SCc2ccccc2)s1)c1ccccc1Cl	-0.715	-0.05
O=C(c1ccccc1)c1oc2ccccc2c1CSc1ccccc1Cl	-0.38	/
Nc1nncn1C(=O)CC1CCS(=O)(=O)C1 (configuration not stated)	-0.675	1.2
Cc1onc(-c2ccccc2)c1C(=O)Nc1sc2c(c1C#N)CCCCCC2	0.305	/
O=C(NCc1ccco1)C(c1cccs1)N(C(=O)C1COc2ccccc2O1)c1cccc(O)c1 (configuration not stated)	/	0.55
COc1ccc(NC(=O)N(Cc2ccccc2)C(=O)CC#N)cc1	-0.005	0.65
CCC(CC)C(=O)c1c[nH]c(C(=O)N2CCN(c3ccc(OC)cc3)CC2)c1	-0.51	/
CSc1nc(N2CCCC2)nc(-c2ccco2)c1C#N	0.14	0.05
CSC1=C(C#N)C(=O)NC(c2cccs2)S1 (configuration not stated)	-3.01	-0.65
Cc1nc2c(c(C)c1CCC(=O)N1CCC(C)CC1)c(=O)n(C)c(=O)n2C	5.51	-0.35
Fc1ccccc1OCCSc1nc2ccccc2s1	-0.085	-0.5
COc1cc(CCC(=O)NNC(=O)c2ccc(Cl)cc2)cc(OC)c1OC	0.53	/
O=C(Nc1ccccc1C(=O)Nc1ccncc1)c1ccccc1	2.48	/
COc1ccc(CCN(C)C(=O)C2CC2C(=O)O)cc1OC (configuration not stated)	-0.115	/
CC(C)Oc1cccc2c1CCN(Cc1ccccc1)C2=O	0.495	-0.45
Cc1ccc(-n2c(NN)nc3ccccc3c2=O)c(C)c1	/	0.05
COc1cc(/C=C2/C(=O)N(c3ccc(C(=O)O)cc3)N=C2C)cc(Br)c1OCc1ccccc1	-0.73	/
CC1=N/C(=C\c2ccc3c(c2)OCO3)C(=O)O1	-0.44	/
O=C(CCNS(=O)(=O)c1ccccc1F)N1CCN(c2ccccc2Cl)CC1	/	0.3
COc1cccc(NC(=O)CC(NC(C)=O)c2ccccc2)c1 (configuration not stated)	/	0.4
CCCNC(=O)c1ccc(-c2nc(CS(=O)(=O)c3ccccc3)c(C)o2)cc1	29.7	-0.4
CCc1nnc2sc(-c3ccc(Cl)cc3)nn12	0.175	0.75
CCOC(=O)c1cc(S(=O)(=O)C(C)C)c(SC)s1	-1.42	-0.1
CCOc1ccc(C2=NN3C(C2)c2cccc(OCC)c2OC3c2ccc(C(=O)OC)cc2)cc1 (configuration not stated)	-1.19	/
O=C(O)CCC(=O)Nc1nc2n(n1)C(c1ccccc1)C=C(c1ccccc1)N2 (configuration not stated)	72.8	-0.5

Next compounds follow.
SMILES	CapD inh	AID504770
O=S(=O)(CCN1CCN(C(c2ccccc2)c2ccccc2)CC1)c1ccc(Cl)cc1	0.48	-0.95
CC1=C(C(=O)OC(C)C)C(C2CC=CCC2)NC(=O)N1 (configuration not stated)	0.315	-0.85
CSc1nnc2c(n1)OC(c1ccccc1)N(C(C)=O)c1ccccc1-2 (configuration not stated)	-0.34	-0.5
O=c1c2cnn(-c3ccccc3)c2ncn1C/C=C/c1ccccc1	-0.705	-0.5
CCCCOc1ccc(-c2nc(/C=N/c3nc(CC(=O)OCC)cs3)c(O)o2)cc1	1.72	/
CCC(NC(C)C)C(O)c1ccc(O)c(O)c1 (configuration not stated)	-0.53	/
CCOC(=O)c1ccc(NC(=O)C(CC)Sc2nnc(C)n3c2cc2occc23)cc1 (configuration not stated)	0.535	-0.9
O=C(COC(=O)c1ccco1)Nc1nc2ccccc2s1	/	-0.65
O=C(N/N=C/c1ccsc1)c1c[nH]c2ccccc12	-0.345	-1.25
CCCOc1ccc(C2NC(=O)NC(C)=C2C(=O)OCc2ccc3c(c2)OCO3)cc1OC (configuration not stated)	0.19	/
CC(C)(C)C1CCC(C(=O)OCC(=O)Nc2ccc3[nH]c(=O)[nH]c3c2)CC1 (configuration not stated)	/	0.25
O=C(NCc1cccc(CNC(=O)c2cnccn2)c1)c1cnccn1	-0.09	-1.25
O=C(NCCSc1ncc(-c2ccccc2)[nH]1)c1ccco1	/	-0.65
O=C(NCc1ccc(Cl)cc1)c1cccnc1OCC(F)(F)F	1.02	-0.8
COc1ccc(N2CCN(C(=O)CSc3nc4[nH]ncc4c(=O)n3-c3cccc(Cl)c3Cl)CC2)cc1	-0.08	/
Cc1ccc(NC(=O)N2C(=O)C3(OCCO3)c3ccccc32)cc1	0.775	-0.3
CN(C)c1ccc(C=NCC2COc3ccccc3O2)cc1 (configuration not stated)	0.3	-0.7
CCOC(=O)N1CCN(CN2CCCCC2=O)CC1	0.07	/
COC(=O)c1c(C)[nH]c(C(=O)C(C)N(C)Cc2ccccc2OC)c1C (configuration not stated)	/	1.3
CCCCCCc1ccc(C(=O)NNC(=O)c2nn(-c3ccccc3)nc2C)cc1	-0.435	/
COc1cc(NC(=O)c2cc3nc(-c4ccc(OC)c(OC)c4)cc(C(F)(F)F)n3n2)cc([N+](=O)[O-])c1	-0.445	/
COc1ccc(-c2[nH]ncc2C)cc1F	-0.465	-0.4
C=CCNC(=O)c1cc(-c2ccc(Cl)cc2Cl)oc1C	/	1.15
O=C(CSc1n[nH]c(-c2ccccc2F)n1)c1ccccc1	-0.055	-1.3
N=C(N)N	0.02	/

More compounds follow.
Every second line gives: CapD inh	AID504770
CCSC1=C(C#N)C(=N)n2c1cc1c2CCCC1
    -0.31	2.5
CCCOC(=O)Nc1sc2c(c1C(N)=O)CCC2
    -0.27	0.05
Fc1ccc(-c2nc3c4cc(I)ccc4c4ccc(I)cc4c3[nH]2)cc1
    -0.255	/
COC(=O)CSc1nc2sc3c(c2c(=O)n1-c1ccc(C)cc1)CCC3
    -0.33	/
CC1CC(OCC(O)CN2CCN(Cc3ccc(Cl)cc3)CC2)CC(C)(C)C1 (configuration not stated)
    -0.435	-0.75
CCCCC(=O)Cc1ccco1
    /	-1.2
O=S(=O)(c1ccc(Cl)cc1)n1ccc(-c2cnc3ccccc3n2)c1
    0.1	1.15
O=c1[nH]c2ccc(NCc3ccccc3C(F)(F)F)cc2[nH]1
    0.55	0.9
CN(C)C(=O)Nc1ccc(C(C)(C)C)cc1
    0.09	0.95
O=C(O)CCC(=O)N1CCC(c2nc(-c3cccs3)no2)CC1
    -0.825	/
COc1cccc(CNC(=O)c2ccc(Nc3nc4ccccc4n4nnnc34)cc2)c1
    3.33	-0.75
CCOP(C)(=O)/C(C#N)=C(\O)c1cc(OC)c(OC)c(OC)c1 (configuration not stated)
    /	-0.75
CCC(=O)N=C1SC2CS(=O)(=O)CC2N1c1ccc(F)c(Cl)c1 (configuration not stated)
    0.915	-0.85
Fc1cccc(N2N=C(/C=C/c3cccs3)CC2c2cccs2)c1 (configuration not stated)
    0.085	/
CC1CC(=O)Nc2ccccc2N1C(=O)Cn1ncc(Cl)c(Cl)c1=O (configuration not stated)
    /	-0.8
O=C(Cc1ccc(F)cc1)N/N=C/c1ccc(-c2ccc(Cl)c(C(=O)O)c2)o1
    /	-0.55
CCn1c(=NC(=O)c2ccc(S(=O)(=O)N3CCCC3)cc2)sc2c3ccccc3ccc21
    -0.77	0.3
Cn1c(C(=O)O)c(S(=O)(=O)c2ccc(Cl)cc2)c2ccccc21
    -0.4	0.15
O=C(O)c1ccncc1Br
    /	0.6
NC(=O)NCCC1=CCCCC1
    /	0
c1ccc2[nH]c(SCc3cn4ccccc4n3)nc2c1
    0.105	0.2
Cc1[nH]c2ccccc2c(=O)c1CN1CCCCC1
    0.425	0.35
N#CC1=C(N)N2C(=C(C#N)C1c1ccc(Cl)cc1Cl)Sc1ccccc12 (configuration not stated)
    0.99	/
COc1ccc2sc(C(=O)O)c(Br)c2c1
    -0.795	1.55
O=C(CN1C(=O)c2ccccc2C1=O)OCCCn1c(=O)[nH]c2ccccc21
    /	0.4
CCCN(Cc1cccs1)C(=O)Nc1cccc(C)c1
    -0.24	0.65
O=C(COC(=O)c1ccc(N2CCCC2=O)cc1)c1ccc2c(c1)OCCO2
    /	0.35
O=C(COC(=O)c1cccs1)NCC1CCCCC1
    -0.13	-1.35
O=C(Nc1cnn(Cc2ccc(F)cc2)c1)c1cnccn1
    0.005	-1.75
NC(=O)c1ccccc1NC(=O)C1COc2ccccc2O1 (configuration not stated)
    0.42	-0.15

Some of the entries so far, with each value named:
Cc1ccc(CSc2ssc(=S)c2-c2ccccc2)cc1
- CapD inh = -1.66
- AID504770 = /

Cn1c(CC23CC4CC(CC(C4)C2)C3)nnc1SCC(N)=O
- CapD inh = -1.48
- AID504770 = 1.3

Cn1nc(C(=O)NCCCN2CCOCC2)c2c1-c1ccccc1S(=O)(=O)C2
- CapD inh = -0.855
- AID504770 = -1.25

CC(C)CN(CC(C)C)C(=O)c1cc2ccccc2oc1=O
- CapD inh = -0.69
- AID504770 = -0.05

Reformatted: results already given
CCCCCCc1ccc(C(=O)NNC(=O)c2nn(-c3ccccc3)nc2C)cc1
  CapD inh = -0.435
  AID504770 = /
COc1cc(NC(=O)c2cc3nc(-c4ccc(OC)c(OC)c4)cc(C(F)(F)F)n3n2)cc([N+](=O)[O-])c1
  CapD inh = -0.445
  AID504770 = /
COc1ccc(-c2[nH]ncc2C)cc1F
  CapD inh = -0.465
  AID504770 = -0.4
C=CCNC(=O)c1cc(-c2ccc(Cl)cc2Cl)oc1C
  CapD inh = /
  AID504770 = 1.15

The list goes on.
Every second line gives: CapD inh	AID504770
NC(=O)CCNC(=O)c1ccc(Cl)cc1
    /	2.15
O=C(OCc1cccnc1)C1CCCN(C2=NS(=O)(=O)c3ccccc32)C1 (configuration not stated)
    /	0
CN(C)S(=O)(=O)c1ccc(C(=O)Nc2nnc(SCC(=O)NCC3CCCO3)s2)cc1 (configuration not stated)
    /	0.4
COc1ccc(CCNC(=O)CSc2nc3[nH]ncc3c(=O)n2-c2ccccc2Br)cc1OC
    -0.625	/
FC(F)(F)COc1nc(N2CCCCC2)nc(N(c2ccccc2)c2ccccc2)n1
    -0.755	0.6
NC(=O)c1ccccc1NC(=O)c1cccc(Br)c1
    2.73	-0.3
COc1ccc(S(N)(=O)=O)cc1C(=O)NCc1ccc2c(c1)OCO2
    /	1.45
N#CCc1ccc(OCc2ccc(Cl)c(Cl)c2)cc1
    0.38	/
COC(=O)CNS(=O)(=O)c1cccs1
    /	-0.1
CCOC(=O)c1c(CSc2ccccc2)n(-c2ccccc2)c2ccc(O)c(CN(C)C)c12
    -0.045	/
O=C1NCCc2c(OC3CCCC3)cccc21
    /	-0.7
S=C(Nc1ccc2[nH]ccc2c1)NC1CC2C=CC1C2 (configuration not stated)
    0.8	0.35
CC(C)N1C(=O)CCNc2ccccc21
    0.695	-0.5
O=C(NC(Cc1c[nH]c2ccccc12)C(=O)O)/C(=C\c1ccccc1)NC(=O)c1ccccc1 (configuration not stated)
    0.075	/
O=C(CSc1nc2sc3c(c2c(=O)n1-c1ccccc1)CCCC3)NCCCN1CCOCC1
    0.88	/
O=C(O)C1=C(c2ccccc2)OCCS1
    -1.02	0.4
